# Compound activity from PubChem.
# Mtb growth = Mycobacterium tuberculosis H37Rv growth inhibition, cell based, confirmatory dose response (AID 1949). 1.6% of 100,000 active. most inactive calls were filed without a number and no value below 0 was filed. one-dose inhibition, % at 10 µg/mL; IC50 in µg/mL for titrated hits;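 active = confirmed in a dose series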;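 also: bacteria grown 7 days with compound before Alamar blue readout; 0% = untreated bacteria and 100% = reference antibiotic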
# The depositor's hits bear a star; i = inactive.
SMILES,Mtb growth
CC1(C)COC(O)(C(F)(F)F)CC1=O (stereo unspecified),2%
O=C1CC(c2c(F)cccc2Cl)c2c(ccc3ccccc23)N1 (stereo unspecified),5%
CCN(CC)C(=O)CSc1nc2sc3c(c2c(=O)n1-c1ccccc1)CCCC3,6%
Nc1nc(-c2ccco2)nn1S(=O)(=O)c1ccc(Cl)cc1,i
COC(=O)c1ccc(C(=O)OC)c(NC(=O)Nc2ccccc2)c1,i
Cc1ccc(C(=O)n2cnnc2N)cc1C,i
CCSc1nc2ccccc2n1C(=O)c1ccc(S(=O)(=O)N2CCOCC2)cc1,i
COc1ccc(NC(=S)NCc2ccccc2Cl)c(OC)c1,i
COc1cccc(NC(=O)CSc2nc3ccccc3c(=O)n2-c2cccc(C(F)(F)F)c2)c1,i
O=C(O)CCSc1nnc(-c2cccnc2)n1-c1ccccc1,i
Cc1ccc(-n2c(SCC(=O)Nc3sc4c(c3C#N)CCCC4)nnc2-c2ccccc2)cc1,1%
O=C(Nc1ccc(I)cc1C(=O)NCc1ccco1)c1cccnc1,i
CCOc1ccccc1CN1CCC(C(=O)N2CCN(c3ccccc3)CC2)CC1,i
CCCCOc1c(Cl)cc(CNC(C)(C)CO)cc1OCC,i
O=c1ccc2ccc(OCc3c(F)cccc3F)cc2o1,2%
CCc1cc2c(=O)c(-c3nc4ccccc4n3C)c(C)oc2c(CN2CCN(CCO)CC2)c1O,2%
O=C(NCC1COc2ccccc2O1)C1(c2ccccc2)CCCC1 (stereo unspecified),5%
Cc1cc(C)cc(NC(=S)NCCc2c[nH]c3ccccc23)c1,21%
O=C(c1ccc(N2CCNCC2)cc1)c1cccs1,1%
CC(NC(=S)NCc1ccc(Cl)cc1)C12CC3CC(CC(C3)C1)C2 (stereo unspecified),1%
COc1ccc(NC(=O)Nc2cc(C)cc(C)n2)cc1OC,i
Cc1ccc(NC(=O)c2ccc(OC(=O)c3ccccc3[N+](=O)[O-])cc2)cc1,i
O=C1CCCN1C(=O)CN1CCOCC1,i
CC(=O)Nc1ccc(S(=O)(=O)NCc2ccc3[nH]c4c(c3c2)CCCC4)cc1,4%
O=C(CN1C(=O)c2ccccc2C1=O)Nc1nc(-c2ccc(Br)cc2)cs1,i

# (cont.)
SMILES,Mtb growth
COc1cccc(N2C(=O)/C(=C/C=C/c3ccccc3)SC2=S)c1,0%
CC1(C)Cc2[nH]c(=O)c(C(=O)O)cc2CO1,i
Cc1ccc(C(=O)Nc2cccc(C(=O)N3CCCCC3)c2)cc1,i
C=CCOc1ccc(Cl)cc1CNC(C)(C)CO,i
CCn1c(SCC(=O)Nc2c(C)cc(C)cc2C)nnc1-c1ccc(OC)cc1,i
COc1cc(NC(=S)NC(=O)c2ccc(OC)c([N+](=O)[O-])c2)ccc1NC(=O)C(C)C,i
CCCc1cc(=O)oc2c(C)c(OCC(=O)c3ccc(Br)cc3)ccc12,i
Cc1c(NC(=O)c2csc3ccccc23)cccc1[N+](=O)[O-],1%
Cc1ccc(OCC(=O)NC23CC4CC(CC(C4)C2)C3)cc1C,3.8µg/mL*
COc1ccc(C)cc1N(CC(=O)Nc1ccccc1Sc1ccccc1)S(C)(=O)=O,6%
CCCCn1c(-c2cccc([N+](=O)[O-])c2)nc(=S)c2c1CCCC2,i
Cc1ccc2cccc(OCCCCOc3ccccc3[N+](=O)[O-])c2n1,i
NC(=O)c1ccc(Nc2ncnc3sc4c(c23)CCCC4)cc1,0%
CCCS(=O)(=O)c1ccc(COC(=O)c2ccc(NC(C)=O)cc2)cc1,i
Cn1cccc1CNCc1ccc(F)cc1,i
O=C(c1cc(-c2cccnc2)nc2ccc(Cl)cc12)N1CCc2ccccc21,i
CS(=O)(=O)N(Cc1ccccc1)c1ccc(C(=O)Nc2cccc(F)c2)cc1,i
COc1cc(COc2cc(C)cc3oc(=O)c(Cc4ccccc4)c(C)c23)cc(OC)c1OC,5%
CCN1CCN(C(=O)CSc2ccc(C)cc2)CC1,i
COc1ccc(CN(C(=O)c2ccco2)C2CCS(=O)(=O)C2)cc1 (stereo unspecified),i
CCCc1cc(C(=O)OCC)c(NC(=O)C2C3CCC(O3)C2C(=O)O)s1 (stereo unspecified),i
CCOC(=O)c1sc(NC(=S)Nc2cccc(S(=O)(=O)N3CCOCC3)c2)c(C(=O)OCC)c1C,i
CS(=O)(=O)N(CC(=O)Nc1ccc(Cl)cc1)c1cccc([N+](=O)[O-])c1,i
Nc1cc(N2CCOCC2)c(F)cc1[N+](=O)[O-],i
COc1ccc(C(=O)Oc2ccc3c(=O)c(-c4ccccc4Cl)coc3c2)cc1,4%

# Additional results follow.
SMILES,Mtb growth
O=[N+]([O-])c1cnn(Cc2ccc(F)cc2Cl)c1,i
Cc1ccc(C2C(C#N)=C(SCc3ccccc3)NC3=C2C(=O)CCC3)cc1 (stereo unspecified),i
CCOC(=O)c1ccc(N2C(=O)CC(N3CCN(c4cccc(C(F)(F)F)c4)CC3)C2=O)cc1 (stereo unspecified),i
COc1cccc(S(=O)(=O)Nc2ccc(C(=O)NCc3ccco3)cc2)c1,i
O=C1NC(=O)C(CCc2ccncc2)(CCc2ccncc2)C(=O)N1c1ccccc1F,i
Cc1ccc(S(=O)(=O)N2CCN(CC(=O)Nc3ccc(F)cc3)CC2)cc1,i
Cc1cc(C)n2nc(C(=O)Nc3cnn(C45CC6CC(CC(C6)C4)C5)c3)cc2n1,30%
CCCc1cc(C(=O)NNC(=S)NCc2ccco2)cs1,i
COc1ccccc1NC(=O)C1=C(C)NC(SCC(=O)Nc2ccc([N+](=O)[O-])cc2)=C(C#N)C1c1ccccc1 (stereo unspecified),i
Cc1ccc(C(=O)NC(=S)N(C)Cc2ccccc2)cc1,2.5µg/mL*
O=C(c1ccc([N+](=O)[O-])cc1)N1CCCC(C(=O)N2CCC(Cc3ccccc3)CC2)C1 (stereo unspecified),3%
CCc1cccc(C)c1N(C(=O)Cn1c(COC)nc2ccccc21)C(C)COC (stereo unspecified),i
CC(C(=O)Oc1ccccc1)N1C(=O)C2C3C=CC(C4CC34)C2C1=O (stereo unspecified),i
CC(=O)Oc1ccc2nc(CN3C(=O)c4ccc([N+](=O)[O-])cc4C3=O)oc(=O)c2c1,i
CCc1noc(C)c1C(=O)N1CCCC1,i
C=CCNC(=S)Nc1ccc(C)cc1[N+](=O)[O-],i
CCn1c(SCC(=O)Nc2cc(Cl)ccc2Cl)nnc1-c1ccc(C)cc1,i
CCOC(=O)Cc1nc2cc(Cl)ccc2o1,10µg/mL*
Cc1c(Cl)cccc1NC(=S)N1CCC(C(O)(c2ccccc2)c2ccccc2)CC1,4%
CCOc1ccc(C(=O)Nc2sc3c(c2C(N)=O)CCC(C)C3)cc1 (stereo unspecified),i
Cc1nc(Nc2nc3ccccc3o2)nc(C)c1C(=O)Nc1ccc(F)cc1,i
NC(=O)C1(N2CCCCC2)CCN(C(=O)CSc2nc3ccccc3s2)CC1,4%
C=C(C)c1cccc(C(C)(C)NC(=O)Nc2ccc(I)cc2)c1,i
N#Cc1nc(/C=C/c2ccccc2)oc1NCc1ccco1,i
N#C/C(=C/c1ccc(N2CCOCC2)o1)c1ccc(Br)cc1,13%

# (next part)
SMILES,Mtb growth
Cc1ccccc1-c1nnc(SCC(=O)Nc2ccc(N3CCOCC3)cc2)o1,i
O=S(=O)(NCc1cccnc1)c1ccc(I)cc1,3%
CNc1oc(COc2ccc(C)cc2)nc1C#N,3%
CC1(C)CC(NC(=O)CCc2ccccc2)CC(C)(CNC(=O)CCc2ccccc2)C1 (stereo unspecified),i
CCCC(=O)Nc1ccc(Cl)cc1-c1nc2ccccc2s1,i
CCCCc1ccc(NC(=O)C2CCN(S(C)(=O)=O)CC2)cc1,i
Cc1cccc(CSCCNC(=O)CN2C(=O)c3ccccc3S2(=O)=O)c1,i
Cc1ccc(N2CCN(S(=O)(=O)N3CCCCC3)CC2)cc1C,i
O=C(Nc1nc(-c2cccs2)cs1)c1ccc(S(=O)(=O)N2CCCCC2)cc1,i
CC1(C)CC(=O)C2=C(C1)OC(N)=C(C#N)C2(C)C,i
Cc1cc(Cl)ccc1N(CC(=O)Nc1cccc(C)c1C)S(=O)(=O)c1ccccc1,3%
CCOc1ccc(NC(=O)NCc2cccc(Cl)c2)cc1,i
Cc1sc(-c2c(C#N)c(N)nc3c2CCCCCC3)cc1[N+](=O)[O-],1%
COc1ccc(C2C(C#N)=C(N)Oc3nc[nH]c(=O)c32)cc1OC (stereo unspecified),i
CC(NC(=O)C1CCCC1)c1ccc(Cl)cc1 (stereo unspecified),i
Cc1c(CCc2ccncc2)c(=O)n2c([nH]c3ccccc32)c1C#N,i
CCOC(=O)COc1cc(Br)c(C2NC(=O)NC(C)=C2C(=O)OC)cc1OCC (stereo unspecified),i
N#C/C(=C/c1ccccc1)c1cccc(C#N)c1,i
COc1ccc(Cl)cc1NC(=O)C(=O)NCc1cccnc1,i
O=C(NCc1ccco1)c1ccc(NC(=O)C2COc3ccccc3O2)cc1 (stereo unspecified),i
N#Cc1ccc(-c2cccs2)nc1SCCCOc1ccccc1,i
COCCC(=O)Nc1c(-c2ccccc2)c2cc(Br)ccc2[nH]c1=O,i
CCCc1nnc(SCc2ccccc2F)n1N,2%
Cc1ccccc1OCC(=O)Nc1cccc(NC(=O)C(C)C)c1,i
CC(C)(C)CC(=O)NC(=S)NCc1ccco1,i

# (listing goes on)
SMILES,Mtb growth
Cc1onc(-c2ccccc2Cl)c1C(=O)N1CCN(C(c2ccccc2)c2ccccc2)CC1,15%
S=C(NCCc1ccc(Cl)cc1)Nc1ccccc1,38%
Cc1cccc(C(=O)Nc2ccccc2C(F)(F)F)c1[N+](=O)[O-],i
CCOc1ccc(NC(=S)Nc2c(C)nn(Cc3ccccc3C)c2C)cc1,i
O=[N+]([O-])c1ccc(C(=S)N2CCN(c3cccc(Cl)c3)CC2)cc1,i
S=c1[nH]nc(COc2cccc(Cl)c2)n1-c1ccccc1,3%
O=C(COc1ccc(NC(=O)C2C3CC4OC(=O)C2C4C3)cc1)c1ccccc1 (stereo unspecified),i
CN(C)CCNC(=S)Nc1cccc(C(F)(F)F)c1,i
CC(C)c1cc(I)ccc1NC(=O)CSc1ccc(Cl)cc1,2%
CCOc1cccc(CNCCO)c1OCc1ccc(Cl)cc1,7%
Cc1ccc(CNc2ccc(O)cc2)s1,i
Cc1ccc(C(=O)N(C)Cc2ccccc2)c(C)c1,1%
O=C(Nc1ccccc1C(=O)NCc1ccco1)c1ccccc1Cl,2%
CSc1ccc(C2C(C(=O)N3CCOCC3)=C(C)NC3=C2C(=O)CCC3)cc1 (stereo unspecified),i
CCn1c(SCC(=O)Nc2ccccc2C(=O)OC)nc2c1c(=O)n(C)c(=O)n2C,i
O=C(NNC(=S)NCc1ccccc1)c1ccc(O)cc1,i
CC(C)c1ccc(OCC(=O)Nc2ccccc2C(F)(F)F)cc1,i
O=C(NCc1ccccc1)c1cc(F)c(F)cc1Cl,i
Cc1cnn(-c2cc(C(F)(F)F)nc(-c3ccccc3)n2)c1,i
C=CCNC(=S)Nc1ccc(OC(F)F)c(Cl)c1,2%
COc1ccc(CCN(C(C)=O)C2CC(=O)N(c3ccc(Cl)cc3)C2=O)cc1OC (stereo unspecified),i
Cc1ccc(C)c(OCC(O)CN2CCc3ccccc3C2)c1 (stereo unspecified),18%
Cn1c(SCc2ccon2)nc2ccccc2c1=O,i
Cc1cc(C(F)(F)F)nc2sc(C(=O)Nc3ccc(Cl)cc3)c(N)c12,i
CCN(CC)CCn1nc(C)nc1-c1ccccc1O,i

# (cont.)
SMILES,Mtb growth
O=C1c2cccc3cccc(c23)C(=O)N1CCN1CCN(C(=S)Nc2ccc(Cl)cc2)CC1,i
COc1ccccc1N1CCN(C(=O)CN(c2cccc(C)c2)S(=O)(=O)c2ccccc2)CC1,i
CCn1c(COc2ccccc2C)nnc1SCC(=O)Nc1nc(-c2ccccc2)c(C)s1,i
Cc1ccc(CNC(=O)CSc2nnnn2-c2ccccc2)cc1,0%
CCC(C)c1ccc(NC(=S)NCc2cc(C)n(C)n2)cc1 (stereo unspecified),i
O=C(COc1cc(Cl)ccc1Cl)Nc1ccccc1C(F)(F)F,i
COc1cc(NC(=O)c2ccc(C)c(C)c2)c(C(=O)O)cc1OC,i
O=C(NCCc1ccncc1)C(F)(F)F,1%
Cc1ccc(N2C(=O)N(c3cccc(Cl)c3)C3CS(=O)(=O)CC32)cc1 (stereo unspecified),i
COCCn1cc(C(=S)N2CCOCC2)c2ccccc21,i
CCOc1ccc(NC(=O)C(C)Sc2nnc(-c3cccc(NC(C)=O)c3)n2C)cc1 (stereo unspecified),i
O=C(Cc1ccccc1)Nc1ccc2c3c(cccc13)C(=O)NC2=O,i

# Compounds from the list above containing an aryl methoxy group:
SMILES,Mtb growth
COc1ccc(NC(=S)NCc2ccccc2Cl)c(OC)c1,i
COc1cccc(NC(=O)CSc2nc3ccccc3c(=O)n2-c2cccc(C(F)(F)F)c2)c1,i
COc1ccc(NC(=O)Nc2cc(C)cc(C)n2)cc1OC,i
COc1cccc(N2C(=O)/C(=C/C=C/c3ccccc3)SC2=S)c1,0%
CCn1c(SCC(=O)Nc2c(C)cc(C)cc2C)nnc1-c1ccc(OC)cc1,i
COc1cc(NC(=S)NC(=O)c2ccc(OC)c([N+](=O)[O-])c2)ccc1NC(=O)C(C)C,i
COc1ccc(C)cc1N(CC(=O)Nc1ccccc1Sc1ccccc1)S(C)(=O)=O,6%
COc1cc(COc2cc(C)cc3oc(=O)c(Cc4ccccc4)c(C)c23)cc(OC)c1OC,5%
COc1ccc(CN(C(=O)c2ccco2)C2CCS(=O)(=O)C2)cc1 (stereo unspecified),i
COc1ccc(C(=O)Oc2ccc3c(=O)c(-c4ccccc4Cl)coc3c2)cc1,4%
COc1cccc(S(=O)(=O)Nc2ccc(C(=O)NCc3ccco3)cc2)c1,i
COc1ccccc1NC(=O)C1=C(C)NC(SCC(=O)Nc2ccc([N+](=O)[O-])cc2)=C(C#N)C1c1ccccc1 (stereo unspecified),i
COc1ccc(C2C(C#N)=C(N)Oc3nc[nH]c(=O)c32)cc1OC (stereo unspecified),i
COc1ccc(Cl)cc1NC(=O)C(=O)NCc1cccnc1,i
COc1ccc(CCN(C(C)=O)C2CC(=O)N(c3ccc(Cl)cc3)C2=O)cc1OC (stereo unspecified),i
COc1ccccc1N1CCN(C(=O)CN(c2cccc(C)c2)S(=O)(=O)c2ccccc2)CC1,i
COc1cc(NC(=O)c2ccc(C)c(C)c2)c(C(=O)O)cc1OC,i

# Some of the compounds tested. The share of hits here may be higher or lower than overall.
